miR-122 sensor = inhibitors of miR-122 in Huh7 cells; Huh7 miR-122 Renilla luciferase sensor, 48 h; neutral wells = 0, positive control = 100; activation (reporter increase), % at 12.5 µM; actives 0.3% (n = 340,000); AID 602342;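 active = mean replicate activation score at least 90 and every replicate individually at or above 90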;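 note: higher luciferase means less miR-122 activity so hits act as miR-122 inhibitors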
SIRT5 inh = blocks human SIRT5 desuccinylation of peptide; Q9NXA8; Purified SirT5, succinyl-peptide AMC, trypsin-coupled fluorescence; inhibition, % at 15 µM; actives 1.1% (n = 330,000); AID 652115; in the data active = inhibition above about 15%
ERp5 inh = blocks human ERp5 reductase activity on insulin; inhibition, % at 9.99 µM; actives 0.05% (n = 350,000); ERp5 insulin aggregation, absorbance 650 nm, 90 min; Q15084;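 active = mean replicate inhibition above about 25%, with every replicate also reaching it, limit read from the data, passing the limit was not always enough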
ERAP1 inh = blocks human ERAP1 aminopeptidase activity; Q9NZ08; recombinant ERAP1, Leu-AMC fluorescence, 60 min; inhibition, % at 10.7 µM; actives 0.15% (n = 340,000);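 active = mean replicate inhibition of at least 30%, or all replicates individually reaching that 30% level; inactive = mean below 30% and not every replicate reaching it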;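 note: 0% = neutral control wells and 100% = L-leucinethiol positive control wells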
Active calls of the source: *; . = not tested or not shown; & = joins results of further samples. Only part of the results is shown; rates above refer to the full screens.

Preview, 2 compounds:
SMILES	miR-122 sensor	SIRT5 inh	ERp5 inh	ERAP1 inh
CC(C)(C(=O)O)c1ccc([C@H](O)CCCN2CCC(C(O)(c3ccccc3)c3ccccc3)CC2)cc1	-5	-4	8	-39
CN1[C@@H]2CC[C@H]1CC(OC(=O)[C@H](CO)c1ccccc1)C2 (stereo partly drawn)	-4	1	-6	-2

Results, from the start:
SMILES	miR-122 sensor	SIRT5 inh	ERp5 inh	ERAP1 inh
CC(C)(C(=O)O)c1ccc([C@H](O)CCCN2CCC(C(O)(c3ccccc3)c3ccccc3)CC2)cc1	-5	-4	8	-39
CN1[C@@H]2CC[C@H]1CC(OC(=O)[C@H](CO)c1ccccc1)C2 (stereo partly drawn)	-4	1	-6	-2
COc1ccc(C[C@H](C)NC[C@@H](O)c2ccc(O)c(NC=O)c2)cc1	-3	-3	3	-1
COc1cccc(N2CCN(CC(=O)Nc3ccc(-n4cnnn4)cc3)CC2)c1	-13	-5	-4	0
Cc1nn(-c2ccccc2)c(Cl)c1/C=N/NC(=O)c1ccncc1	.	-2	3	-4
O=C(NNC(=O)c1ccccc1F)c1cccc(-n2cccc2)c1	0	2	0	3
O=C(N/N=C/c1ccc(OC(=O)c2ccccc2Cl)cc1)c1cc(O)cc(O)c1	.	-3	1	3
CN1[C@@H]2CC[C@H]1CC(OC(=O)C(CO)c1ccccc1)C2 (stereo partly drawn)	10	1	3	-1
COc1ccc2cc([C@@H](C)C(=O)O)ccc2c1	3	-9	0	2
COc1cccc(C(=O)Nc2cc3c(cc2N2CCCC2)n(C)c(=O)n3C)c1	6	1	1	1
N#Cc1ccc(OCCCN2CCC(C(O)(c3ccccc3)c3ccccc3)CC2)cc1	.	-3	-1	-3
CN(C)CCOC(c1ccccc1)c1ccccc1	3&0	-2&-1	6&1	1&-1

One compound at a time (already shown). Values in the order: miR-122 sensor, SIRT5 inh, ERp5 inh, ERAP1 inh
CC(C)(C(=O)O)c1ccc([C@H](O)CCCN2CCC(C(O)(c3ccccc3)c3ccccc3)CC2)cc1 across the screens: -5, -4, 8, -39
CN1[C@@H]2CC[C@H]1CC(OC(=O)[C@H](CO)c1ccccc1)C2 (stereo partly drawn) across the screens: -4, 1, -6, -2
COc1cccc(C(=O)Nc2cc3c(cc2N2CCCC2)n(C)c(=O)n3C)c1 across the screens: 6, 1, 1, 1
CN(C)CCOC(c1ccccc1)c1ccccc1 across the screens: 3&0, -2&-1, 6&1, 1&-1
CN1[C@@H]2CC[C@H]1CC(OC(=O)C(CO)c1ccccc1)C2 (stereo partly drawn) across the screens: 10, 1, 3, -1

From PubChem
